Compound activity deposited in PubChem by National Center for Advancing Translational Sciences (NCATS).
Vaccinia Venus = qHTS for Stage-Specific Inhibitors of Vaccinia Orthopoxvirus: Venus Reporter Primary qHTS | Vaccinia virus Venus reporter expression, fluorescence | hit rate 0.46% among 330,000 | Potency, µM (titrated, usually from 36.5 µM), for the others: at the top dose activity change, negative = inhibition, actives largely listed as inhibitors; active means well fitted inhibition curve with a large enough effect; inconclusive means small, poorly fitted or top-dose-only effect; inactive means no such curve, though single readings can be large or run the other way; tested in A549 cells; note: nearly all actives have a fitted effect of over 30% in size; inactives centre near -10
VACV mCherry inh = qHTS for Stage-Specific Inhibitors of Vaccinia Orthopoxvirus: mCherry Reporter Primary qHTS | Vaccinia virus mCherry reporter infection, fluorescence; about a quarter of the inactives have no number | Potency, µM (series often up to 36.5 µM), inactives show top-dose activity change, negative = inhibition, most hits filed as inhibitors | hit rate 0.63% among 310,000; active = well fitted inhibition curve with a large enough effect; inconclusive = small, poorly fitted or top-dose-only effect; inactive = no such curve, though single readings can be large or run the other way; tested in A549 cells; note: nearly all actives have a fitted effect of over 35% in size; inactives centre near -10
* = called active by the depositor; i = inactive; u = inconclusive; x = not tested or not shown; & = joins results of further samples; [ ] = another dose, or the depositor's remark. % is set by controls: 0 for no effect and ±100 for the full control effect; potency is the fitted concentration of half-maximal effect.

A first look:
Below each SMILES: Vaccinia Venus	VACV mCherry inh
NS(=O)(=O)c1ccc(CCNC(=O)c2ccc([N+](=O)[O-])s2)cc1
 : u	11µM*
COc1ccc(C(=O)O)cc1S(=O)(=O)N(C)C
 : 3%	i
CN1CCCC1CCO[C@@](C)(c1ccccc1)c1ccc(Cl)cc1 (some centres undefined)
 : -21%	-30%

All compounds of this part, from the first entry:
Below each SMILES: Vaccinia Venus	VACV mCherry inh
NS(=O)(=O)c1ccc(CCNC(=O)c2ccc([N+](=O)[O-])s2)cc1
 : u	11µM*
COc1ccc(C(=O)O)cc1S(=O)(=O)N(C)C
 : 3%	i
CN1CCCC1CCO[C@@](C)(c1ccccc1)c1ccc(Cl)cc1 (some centres undefined)
 : -21%	-30%
CC(C#N)Sc1ncnc2sc3c(c12)CCC3 (centres undefined)
 : -19%	i
CN1C(=O)c2ccccc2Sc2ccc(NC(=O)N3CCN(c4ccccc4F)CC3)cc21
 : -24%	-27%
CCc1ccc(N=C2NC(=O)/C(=C/c3cc(OC)c(OC)c(OC)c3)S2)cc1
 : u	-28%
Cc1ccc(C(=O)N(CC(=O)Nc2sc(C)c(C)c2C(N)=O)C2CCCC2)cc1
 : -15%	-27%
CC(=O)N1CCN(c2ccnc3cc(Cl)ccc23)CC1
 : -11%	i
CCCCn1nc2cc(C(=O)NCCc3ccc(C)cc3)ccc2c1OCC
 : 0%	-12%
CCN(C(=O)C(C)OC(=O)C1C(C(=O)OC)=C(C)NC(C)=C1C(=O)OC)c1ccccc1 (centres undefined)
 : -14%	-4%
Cn1cc(C(N)=O)c2ccccc21
 : -14%	-13%
C[N+](C)(C)CCOC(=O)C1(c2ccccc2)CCCC1
 : -7%	-4%
CCC1(C)OC(=O)N(CCCn2ccnc2C)C1(C)O (centres undefined)
 : -20%	i
CCNC(=O)C(Cc1ccccc1)NC(=O)OCc1ccccc1 (centres undefined)
 : 4%	i
CCN(CC)S(=O)(=O)c1cc(Cl)ccc1OC
 : -5%	-24%
COCCNC(=O)C1CCC(=O)N1S(=O)(=O)c1ccc(C)cc1 (centres undefined)
 : -4%	0%
CN(CCc1cn[nH]c1)Cc1nc(C(c2ccccc2)c2ccccc2)no1
 : 0%	u
Cc1ccccc1OCC(=O)NCCC(=O)O
 : -14%	i
CCOC(=O)CCC(NC(=O)c1ccc(NCN2C(=O)CCC2=O)cc1)C(=O)OCC (centres undefined)
 : -7%	-14%
CCOC(=O)c1cnc2ccc(Cl)cc2c1Nc1ccc(N2CCOCC2)cc1
 : -8%	-11%
CC1Oc2ccccc2OC1C(=O)Nc1nccs1 (centres undefined)
 : -10%	i
CC(=O)OC[C@H]1O[C@@H](Oc2cc(O)cc3oc(-c4ccc(O)cc4)cc(=O)c23)[C@H](O[C@@H]2O[C@@H](C)[C@H](O)[C@@H](O)[C@H]2O)[C@@H](O)[C@@H]1O
 : -6%	i
O=C(C[C@@H]1C/C=C\CCC(=O)OC[C@@H]2CCCN2C1=O)N[C@H](CO)Cc1ccccc1
 : -6%	i
CC1(c2cccc(Br)c2)NC(=O)N(CC(=O)Nc2cccnc2Cl)C1=O (centres undefined)
 : -7%	i
Cc1cc(-n2c(C)cc(C(=O)COc3ccccc3[N+](=O)[O-])c2C)no1
 : -7%	-6%
CCCC[C@@H]1CNC(=S)N1CCCC
 : -3%	-27%
COc1ccc2[nH]c3c(NCCCOC(C)C)ncnc3c2c1
 : -17%	-28%
O=c1[nH]c(CN2CCN(S(=O)(=O)/C=C/c3ccccc3)CC2)nc2cc(Cl)ccc12
 : 11µM*	u
CON(C)S(=O)(=O)NC(=O)C1=C(N2CCCC2)COC1=O
 : 1%	i
O=C(COc1ccc(S(=O)(=O)N2CCOCC2)cc1)Nc1cccc([N+](=O)[O-])c1
 : -9%	1%

Two entries picked at random from those above:
Below each SMILES: Vaccinia Venus	VACV mCherry inh
Cc1cc(-n2c(C)cc(C(=O)COc3ccccc3[N+](=O)[O-])c2C)no1
 : -7%	-6%
CCN(C(=O)C(C)OC(=O)C1C(C(=O)OC)=C(C)NC(C)=C1C(=O)OC)c1ccccc1 (centres undefined)
 : -14%	-4%

New compounds follow.
Below each SMILES: Vaccinia Venus	VACV mCherry inh
CCOC(=O)C1CCCN1C(=O)c1ccc(OC)c(Br)c1 (centres undefined)
 : 2%	-29%
CCc1ccc(-c2nc(CS(=O)CC(=O)NCCCN3CCOCC3)c(C)o2)cc1 (centres undefined)
 : -3%	-4%
Cc1ccc(-c2nnc(SCC(=O)NC(=O)Nc3ccc(C)cc3C)n2N)cc1
 : -8%	-14%
O=C1NC(=S)NC(=O)C1=Cc1ccc(OCc2ccccc2)cc1
 : 3%	-11%
CCOc1ccc(S(=O)(=O)Nc2cccc(C(=O)NCC(C)(C)N3CCOCC3)c2)cc1
 : -5%	-10%
CC(=O)Nc1cccc(NC(=O)CSc2ccc(-c3ccccn3)nn2)c1
 : u	u
C=CCn1c(CCC(=O)O)ccc1-c1ccccc1
 : 0%	-2%
O=S(=O)(/N=C(/Nc1ccc(F)c(F)c1F)c1ccccc1)c1ccccc1
 : -14%	-17%
COc1ccc(-c2nc3scc(CCNS(=O)(=O)c4cccs4)n3n2)cc1
 : -12%	-9%
COc1ccc(/C(N)=N/OC(=O)c2cccs2)cc1OC
 : -21%	i
Nn1c(=O)[nH]c2c([nH]c3ccccc32)c1=O
 : 0%	-4%
O=C(NNC(=S)Nc1cccc(Cl)c1)c1ccccc1OC(F)F
 : u	u
Cn1cc(CN2CCCC(CO)(Cc3ccccc3)C2)cn1 (centres undefined)
 : 5%	-24%
COCCn1c(C)cc(C2=NNC(=Nc3ccccc3)SC2)c1C
 : -6%	-8%
O=C(NNc1c(Cl)cccc1Cl)C1CCC1
 : -14%	i
Cc1cccc(CNC(=O)C2CCCN(S(=O)(=O)c3cn(C)cn3)C2)c1 (centres undefined)
 : -10%	-10%
COc1ccc(C(=O)N[C@H](C(=O)N2CCN(c3ccccc3F)CC2)C(C)C)cc1
 : -12%	u
CC(=O)N/N=c1\sc2ccccc2n1C
 : 2%	-1%
C[C@H](CO)N1C[C@H](C)[C@@H](CN(C)C(=O)Nc2ccccc2)Oc2ccc(NC(=O)Nc3ccc4c(c3)OCO4)cc2C1=O
 : -7%	i
O=C(CN1CCOCC1)Nc1ncc(Cc2cccc3ccccc23)s1
 : -20%	i
O=C(/C=C(\O)c1ccc(Cl)cc1)C(=O)NNC(=O)C(O)(c1ccccc1)c1ccccc1
 : 4%	x
O=C(O)c1cc(-c2ccccc2)on1
 : 4%	-15%
O=C1CCC(C(=O)N2CCc3c(Cl)cccc3C2)CN1CCCN1CCOCC1 (centres undefined)
 : -16%	-5%
O=C(O)c1ccc(C(=O)Nc2ccc(F)cc2)cc1
 : 1%	-5%
O=C(CCCCn1c(=O)c2ccccc2n(Cc2cccc(Cl)c2)c1=O)NCc1ccc2c(c1)OCO2
 : -13%	-27%
O=C(NCc1nc2ccccc2[nH]1)c1ccccc1F
 : -2%[7.34 µM]	i[7.34 µM]
Cc1ccc(-c2onc(C)c2C)cc1S(=O)(=O)NC1CCC(C)CC1 (centres undefined)
 : -21%	-20%
CC1(C(=O)Nc2ccc3c(c2)OCO3)CCN1C(=O)c1ccccc1 (centres undefined)
 : -2%	i
CCN1CCN(CCCNC(=O)C(=O)c2c(C)[nH]c3ccccc23)CC1
 : -3%	i
COc1cccc(NC(=O)COC(=O)c2ccc3c(c2)OCO3)c1
 : -6%	-10%

(list continues)
Structure | Vaccinia Venus | VACV mCherry inh
Cc1cc(C(=O)N/N=C/c2ccc(OCc3ccccc3)cc2)c(C)o1 | -10% | -20%
COc1ccc([C@H]2CC(=O)C[C@@H](CCn3cc(CCc4ccccc4)nn3)O2)cc1 | 0% | 6%
CCN(CC)C(=O)[C@H]1C[C@H](CC(=O)NCCN2CCOCC2)C(=O)N2CCc3c([nH]c4ccc(Cl)cc34)[C@]12C | 0% | i
CC(C)Oc1ccc(C(=O)NC2=NCCS2)cc1 | -6% | i
Fc1ccc(-n2c(-c3ccc4ccccc4n3)n[nH]c2=S)cc1Cl | -7% | i
CC(=O)Nc1ccc(NC(=O)c2csnn2)cc1 | -5% | -7%
c1cc(-c2cnc3cccnn23)c2cccnc2c1 | -21% | i
COc1ccc(C(=O)NN(C)c2nc(-c3ccccc3)nnc2C(F)(F)F)cc1 | -3% | 12%
COc1ccccc1N(CC(=O)NCCSCc1cccc(Cl)c1)S(C)(=O)=O | -20%&-13% | -24%&-7%
COc1ccc(CCNC(=O)CNS(=O)(=O)c2ccc(Cl)cc2)cc1 | -8%[7.34 µM] | -2%[7.34 µM]
C/C(=N/OC(=O)c1c(-c2c(F)cccc2Cl)noc1C)c1cnccn1 | -13% | -29%
CN(c1ccccc1C(=O)N1CCN(Cc2ccc3c(c2)OCO3)CC1)S(C)(=O)=O | -7% | -2%
C=CCSc1ncc(CO)n1Cc1ccccc1 | -15% | 0%
COc1ccc(-n2ncc(C(=O)N3CCc4ccccc4C3)c2C2CCN(C(=O)OC(C)(C)C)CC2)cc1 | -11% | -5%
Cc1ccc(NC(=O)CN2CCN(C)CC2)cc1S(=O)(=O)N1CCOCC1 | -18% | i

A different layout for 4 compounds above:
C/C(=N/OC(=O)c1c(-c2c(F)cccc2Cl)noc1C)c1cnccn1
- Vaccinia Venus = -13%
- VACV mCherry inh = -29%
COc1ccc([C@H]2CC(=O)C[C@@H](CCn3cc(CCc4ccccc4)nn3)O2)cc1
- Vaccinia Venus = 0%
- VACV mCherry inh = 6%
COc1ccccc1N(CC(=O)NCCSCc1cccc(Cl)c1)S(C)(=O)=O
- Vaccinia Venus = -20%&-13%
- VACV mCherry inh = -24%&-7%
COc1ccc(C(=O)NN(C)c2nc(-c3ccccc3)nnc2C(F)(F)F)cc1
- Vaccinia Venus = -3%
- VACV mCherry inh = 12%

The listing continues.
Structure | Vaccinia Venus | VACV mCherry inh
COc1cccc(-n2nnc3c(=O)n(C/C=C/c4ccccc4)cnc32)c1 | -20% | -12%
Cc1noc(C)c1C(=O)OCC(=O)Nc1c(F)cccc1F | 0% | i
CCCCSc1nc2c(c(=O)[nH]c(=O)n2C)n1CCc1ccccc1 | -19% | -15%
C=C(C)Cn1c2ccc(NC(=O)NCc3ccccc3)cc2c(=O)n1C | -9% | i
Cc1ccc2c(c1)[C@H]1[C@H](CO2)[C@H](c2ccccc2)[C@]2(C)C(=O)Nc3cc(F)ccc3C(=O)N12 | -24% | -16%
CCc1[nH]nc2c1C(c1ccsc1)C(C#N)=C(N)O2 (centres undefined) | 5% | x
CN(c1ccccc1)S(=O)(=O)c1cccc(NC(=O)Cn2cnc3ccccc3c2=O)c1 | u | x
COc1ccc(NC(=O)CCNC(=O)c2ccccc2)cc1S(N)(=O)=O | -3% | i
Cc1ccccc1N1CC(O)(c2ccccc2)[N+]2=C1SCC2 (centres undefined) | -3% | -10%
O=C(COC(=O)c1ccccn1)NC1CCCCC1 | -27% | -24%
CCOP(=O)(OCC)C(O)c1ccc(N(C)C)cc1 (centres undefined) | -3% | i
CC1CN(C(=O)C(C)Sc2nnnn2C)CC(C)O1 (centres undefined) | -4% | i
O=C(OCC(=O)N1CCN(C(=O)c2ccco2)CC1)c1cc(F)c(F)cc1Cl | -4% | -13%
Cc1ccc(C)c2[nH]c(=O)c(CN(Cc3ccco3)C(=S)NCC3CCCO3)cc12 (centres undefined) | -6% | -7%
Cc1ccc2c(C)c(C(=O)Nc3cccnc3)oc2c1 | -10% | -20%
COc1ccc(C(=O)NCC(=O)NCC2COc3ccccc3O2)cc1 (centres undefined) | 6% | -10%
CC(=O)c1ccc(Nc2nc(-c3ccccc3)nc3ccccc23)cc1 | u | u
CCOC(=O)NNC(=O)C1CCC(C)CC1 (centres undefined) | -9%&-6% | -3%&1%
CCN(CC(=O)Nc1ccccc1OC)C(=O)c1ccc(NS(=O)(=O)c2ccc(C(C)=O)cc2)cc1 | -6% | -8%
CCN(c1ccc(NC(=O)COC(=O)c2cc3ccccc3oc2=O)cc1)C(C)C | 2% | -21%
O=S(=O)(c1ccc(Cl)cc1)N1Cc2cc(Br)ccc2-n2nncc2C1 | -10% | i
O=C(/C=C\Nc1ccc2c(c1)OCO2)c1cccs1 | -16% | -20%
CCOc1ccccc1OCC(=O)Nc1ccc(Cl)cc1C(=O)c1ccccc1 | -16% | -19%
O=C(CCc1ccccc1)NCC1(c2ccccc2)CCCC1 | -23% | -3%
CCOC(=O)[C@H]1[C@H]2COc3ccccc3[C@@H]2N2C(=O)c3c(C)cc(C)cc3NC(=O)[C@@]12C | -17% | -5%
CCN(CC)CCN(C(=O)c1ccco1)c1nc2ccc(F)cc2s1 | -15% | -9%
Cc1ncoc1C(=O)N1CCCC(C(=O)c2ccc3c4c(cccc24)CC3)C1 (centres undefined) | -9% | i
CCC(CC)C(=O)Nc1cccc(/C(C)=N/NC(=O)c2c(Br)cnn2C)c1 | 2% | x
O=C(CC1C(=O)NCCN1Cc1cccc(F)c1)NC1CCCCC1 (centres undefined) | -18% | i
Cc1cc(C(F)(F)F)n2nc(-c3ccc(Br)cc3)cc2n1 | -13% | -2%
Cc1ccc2nc(SCC(=O)N3CCC4(CC3)CC4C(=O)Nc3ccc(F)c(F)c3)[nH]c2c1 (centres undefined) | -8% | -6%
COc1ccccc1Cn1c(=S)[nH]c2ccc(F)cc2c1=O | -17% | -6%
